VDR inhibitor: vitamin D3 receptor (human) inhibition; P11473; VDR-SRC2-3 peptide fluorescence polarization, 2 h; Potency, µM, for the others: max response, negative = inhibition, usual class: inhibitors; 400,000 tested, 0.93% active; AID 504847; active means well fitted inhibition curve with a large enough effect; inconclusive means small, poorly fitted or top-dose-only effect, or another doubt; inactive means no such curve, though single readings can be large or run the other way; further: series mostly up to about 120 µM
Target sequence (P11473 whole entry, looked up): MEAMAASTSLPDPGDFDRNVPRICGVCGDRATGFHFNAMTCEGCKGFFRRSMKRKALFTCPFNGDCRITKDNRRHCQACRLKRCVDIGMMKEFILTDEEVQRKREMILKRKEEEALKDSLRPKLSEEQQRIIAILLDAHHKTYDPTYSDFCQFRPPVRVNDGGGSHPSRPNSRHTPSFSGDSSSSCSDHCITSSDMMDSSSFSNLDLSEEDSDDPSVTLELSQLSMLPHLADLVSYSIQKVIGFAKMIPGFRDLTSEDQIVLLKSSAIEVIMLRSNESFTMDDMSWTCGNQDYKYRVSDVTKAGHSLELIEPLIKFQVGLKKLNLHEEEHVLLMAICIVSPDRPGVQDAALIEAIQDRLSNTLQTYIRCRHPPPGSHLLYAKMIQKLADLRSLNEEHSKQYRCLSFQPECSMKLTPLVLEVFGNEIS
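Fluorescence polarization assay measuring small-molecule disruption of VDR binding to the coregulator peptide SRC2-3. Compounds were pin-transferred (23 nl) into the reagent mix and incubated 2 h at room temperature before reading.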
An asterisk follows results filed as active; u = inconclusive; & = joins results of further samples; [ ] = another dose, or the depositor's remark. On the % scale 0 is the no-effect control and ±100 the full control effect; potency means the concentration at half of the fitted maximal effect. The list is partial (hit frequency here may not be typical).

SMILES	VDR inhibitor
CCOc1cc(CNn2nnnc2N)ccc1OCC(=O)NC(C)(C)C	-1%
COc1c(Cl)cc(Cl)cc1C(=O)n1nc(C)cc1C	19%
O=C(CSc1n[nH]c(=O)[nH]c1=O)Nc1ccc(SC(F)F)cc1	-25%
O=C(NCc1ccccc1Cl)c1ccccc1CCc1ccccc1	-2%
Fc1cc(F)cc(NC(=S)N2CCN(c3ncccn3)CC2)c1	-14%
O=C1C[C@@H](c2ccc(O)c(O)c2)Oc2c1ccc(O[C@@H]1O[C@H](CO)[C@@H](O)[C@H](O)[C@H]1O)c2O	3%
O=C(NCc1nnnn1-c1ccc(F)c(F)c1)c1ccc2ccccc2c1	-8%
O=C(CCNC(=O)c1ccccc1Cl)Nc1nc2ccccc2s1	2%
Cc1nc(C(F)(F)F)ccc1C(=O)Nc1ccccc1F	-10%
CCc1nnc(NC(=O)CSc2nccn2-c2cccc(C)c2)s1	-23%
CC1(C)CC(NC(=O)c2ccc(-c3ccc([N+](=O)[O-])cc3)o2)CC(C)(C)N1	-1%
CC1=NN(C(N)=S)C(=O)C1N=Nc1c(C)cc(C)cc1C (centres undefined)	-14%
CCCn1c(CCNc2nc(-c3ccc(OC)cc3)cs2)nc2ccccc21	0%
Cc1ccc2c(COC(=O)c3ccccc3F)cc(=O)oc2c1	-22%
Cc1cc(C)cc(N(CC(=O)NCc2ccc(F)cc2)C(=O)CCC(=O)Nc2ccccn2)c1	-4%
O=Cc1ccccc1OCCOc1ccc([N+](=O)[O-])cc1	u
COc1cc(-c2nnc(SCC(=O)NC3CCS(=O)(=O)C3)o2)cc(OC)c1OC (centres undefined)	-17%
CCc1c(C)nc2c(Br)cccc2c1SCCC#N	u
O=C(COC(=O)/C=C/c1ccc(F)cc1)NC1CCS(=O)(=O)C1 (centres undefined)	8%
CCOC(=O)C1CCCN(C(=O)CN2C(=O)c3ccccc3C2=O)C1 (centres undefined)	6%
Cn1c(-c2cnn(-c3ccccc3)c2N)n[nH]c1=S	9%
O=C1c2cnc3nc(SCc4ccccc4)nn3c2CC2c3ccccc3CCN12 (centres undefined)	-4%
Cn1c(Cn2cnc(Cl)c2Cl)nc2ccccc21	6%
Cc1cc(C)nc(NC(N)=NC2CCCCC2)n1	2%
Cc1nn(C)c(C)c1S(=O)(=O)N1CCC(C(=O)NC2CCCCC2)CC1	-2%

Of the compounds above, these have a nitro group on carbon.
SMILES	VDR inhibitor
CC1(C)CC(NC(=O)c2ccc(-c3ccc([N+](=O)[O-])cc3)o2)CC(C)(C)N1	-1%
O=Cc1ccccc1OCCOc1ccc([N+](=O)[O-])cc1	u

A few values from the entries so far:
O=C(COC(=O)/C=C/c1ccc(F)cc1)NC1CCS(=O)(=O)C1 (centres undefined) | VDR inhibitor = 8%
COc1c(Cl)cc(Cl)cc1C(=O)n1nc(C)cc1C | VDR inhibitor = 19%
Cc1cc(C)cc(N(CC(=O)NCc2ccc(F)cc2)C(=O)CCC(=O)Nc2ccccn2)c1 | VDR inhibitor = -4%
Cc1nc(C(F)(F)F)ccc1C(=O)Nc1ccccc1F | VDR inhibitor = -10%
O=C(NCc1ccccc1Cl)c1ccccc1CCc1ccccc1 | VDR inhibitor = -2%
O=C(NCc1nnnn1-c1ccc(F)c(F)c1)c1ccc2ccccc2c1 | VDR inhibitor = -8%

Next part.
SMILES	VDR inhibitor
Cc1cc(C)n(-c2ccc(C(=O)Nc3ccccn3)cc2)n1	24%
O=C(Nc1sccc1C(=O)NCc1ccco1)c1cccnc1	15%
CCOC(=O)N1CCC(NC(=O)c2cccn3c(=O)c4cc(Br)ccc4nc23)CC1	-8%
O=C(Cn1nnc(-c2ccccc2)n1)N=Nc1c(O)[nH]c2ccccc12	1%
O=C1OC(N2CCN(Cc3ccccc3)CC2)c2ccccc21 (centres undefined)	11%
COc1ccc(CCN(C)C(=S)Nc2cccc(C)c2)cc1OC	1%
C=CCOC(=O)C1=C[C@@H](c2csc3ccccc23)[C@H](CCCO)[C@@H](OCC)O1	-17%
Cc1cc(C)nc(Sc2nc(Cl)nc(N(c3ccccc3)c3ccccc3)n2)n1	22µM*
C=C1N(C)c2cc([N+](=O)[O-])c(N)cc2C1(C)C	25%
Cc1sc2ncnc(NCC(C)(C)N3CCOCC3)c2c1C	4%
CN(CC(=O)Nc1ccccc1C(=O)Nc1ccccc1)C1CCCCC1	3%
CC(C)CCn1c(N2CCOCC2)nc2c1c(=O)n(CC(N)=O)c(=O)n2C	-9%
O=NN(CCc1ccncc1)c1ccc(OCc2ccccc2)cc1	-14%
CC(=O)NC(c1cccs1)c1cc([N+](=O)[O-])c2cccnc2c1O (centres undefined)	1%
Cc1c(C#N)c(NC(=O)c2cccc(Cl)c2)n(Cc2ccccc2)c1C	-3%
O=C1c2ccccc2-c2c1nc1c([n+]2[O-])CCCC1	17%
Cc1nc2ccc(Br)cn2c1C(=O)N/N=C\c1ccccc1[N+](=O)[O-]	10%
CC1(C)C[C@@H]1C(=O)N/C(=C\CCCCSC[C@H](N)C(=O)O)C(=O)O	-10%&-26%
O=C(COc1ccccc1)Nc1nc(-c2ccncc2)cs1	-9%
O=[N+]([O-])c1ccc(S(=O)(=O)Nc2ccncc2)cc1	-14%
COC(=O)C1(C)NC(c2ccc(O)cc2)C2C(=O)N(c3ccccc3)C(=O)C21 (centres undefined)	-9%
CCCCn1c(N)c(N(CCOC)C(=O)COC(=O)C(C)(C)Oc2ccc(Cl)cc2)c(=O)[nH]c1=O	1%
O=C(NC(C(=O)N/N=C/c1ccncc1)c1n[nH]c(=O)c2ccccc12)c1ccccc1 (centres undefined)	0%
CSCCC(C(=O)OC1CCOC1=O)N1C(=O)c2ccccc2C1=O (centres undefined)	2%
Cc1cc(C)n(-c2nc3ccccc3nc2N2CCN(S(=O)(=O)c3cccc(C#N)c3)CC2)n1	-6%

6 entries from above in a different format.
compound | VDR inhibitor
CCc1nnc(NC(=O)CSc2nccn2-c2cccc(C)c2)s1 | -23%
CC1(C)CC(NC(=O)c2ccc(-c3ccc([N+](=O)[O-])cc3)o2)CC(C)(C)N1 | -1%
CC1=NN(C(N)=S)C(=O)C1N=Nc1c(C)cc(C)cc1C (centres undefined) | -14%
CCCn1c(CCNc2nc(-c3ccc(OC)cc3)cs2)nc2ccccc21 | 0%
Cc1ccc2c(COC(=O)c3ccccc3F)cc(=O)oc2c1 | -22%
Cc1cc(C)cc(N(CC(=O)NCc2ccc(F)cc2)C(=O)CCC(=O)Nc2ccccn2)c1 | -4%

The list goes on:
SMILES	VDR inhibitor
O=C(NCC1COc2ccccc2O1)C1C2C=CC3(CN(Cc4ccccc4Cl)C(=O)C13)O2 (centres undefined)	4%
CCCC(c1nnnn1CCOC)N1CCN(Cc2ccccc2)CC1 (centres undefined)	-6%
O=C(NCc1ccccc1)c1cc(-c2cccc(O)c2)on1	-4%
CCOc1ccc(C2C=C(c3ccccc3)Nc3nnnn32)cc1 (centres undefined)	13%
COc1ccccc1C1CCN(C(=O)c2cccc([N+](=O)[O-])c2)CC1	-12%
Cc1ccc(-c2nc3c(c(=O)c4ccccc4n3C)c(=O)n2-c2ccc(F)cc2)cc1	-5%
O=C/C=C/c1coc2ccc3ccccc3c2c1=O	-15%
Cc1cccc(NC(=O)CSc2c(C)cnc3c2c(=O)n(C)c(=O)n3C)c1C	17%
COc1ccc(N=C2S/C(=C\c3cc(C)n(C)c3C)C(=O)N2CC(C)C)cc1	-17%
O=S(=O)(NCCc1ccccc1)c1ccc(F)cc1Br	13%
Cc1cc(C)cc(C(=O)NCC(=O)NCc2ccc(S(N)(=O)=O)cc2)c1	53%[activator]
COc1ccc(S(=O)(=O)NCC2CCC(C(=O)NCC(OC)OC)CC2)cc1 (centres undefined)	12%
O=C(/C=C/c1ccco1)Nc1ccc2c(c1)OCCO2	-7%
CC(=O)N(C)c1ccc(NC(=O)c2ccco2)cc1	-5%
CC(C)(C)c1ccc(OCC(O)CN2CCc3ccccc3C2)cc1 (centres undefined)	0%
CS(=O)(=O)NCCC1=CCCCC1	-9%
CC(=O)Nc1ccc(S(=O)(=O)NCC(=O)OCC(=O)N2CCN(c3ccccc3)CC2)cc1	-2%
CCOc1ccccc1OCCCC(=O)NC1=NCCS1	17%
CC(=O)Nc1nc(-c2cccc3ccccc23)cs1	25µM*
CN(C)S(=O)(=O)c1cccc(C(=O)Nc2ccccc2C(=O)NC2CC2)c1	u
COc1ccccc1CNC(=O)c1cc(S(=O)(=O)N2CCCCCC2)cn1C	12%
CC1C(=O)CCN(C(C)(C)C)C1C (centres undefined)	11%
Cc1ccc2[nH]c(C(=O)Nc3ccc(F)cc3)cc2c1	-1%
CCOC(=O)CCn1nc(-c2ccc(Cl)cc2)cc1N	-4%
Oc1ccc2[nH]ccc2c1	4%

A draw from above in order of length of the SMILES, largest number first.
SMILES	VDR inhibitor
CC(=O)Nc1ccc(S(=O)(=O)NCC(=O)OCC(=O)N2CCN(c3ccccc3)CC2)cc1	-2%
O=C1c2cnc3nc(SCc4ccccc4)nn3c2CC2c3ccccc3CCN12 (centres undefined)	-4%
Cc1ccc2[nH]c(C(=O)Nc3ccc(F)cc3)cc2c1	-1%

(further entries)
SMILES	VDR inhibitor
Cc1cc(C)nc(SCC(=O)N/N=C/c2cccc([N+](=O)[O-])c2)n1	79µM*
CCCCc1nnc(NC(=O)C=C(C)C)s1	4%
COc1ccc(NC(=O)CN(C)C(=O)Cc2ccsc2)cc1	4%
C#CCNC(=O)[C@H](Cc1ccc(C(=O)c2ccccc2)cc1)NC(=O)OC(C)(C)C	6%
COc1cccc(CNC(=O)CN2N=C(c3ccc(C)cc3)CCC2=O)c1	2%
O=C(NCc1cccc(F)c1)c1cccc(NC(=O)c2nsc3ccccc23)c1	7%
NC(=O)Cn1cnc2c(nnn2-c2ccc(F)cc2)c1=O	-18%
Cc1ccc(C(=O)C2=C(O)C(=O)N(Cc3cccnc3)C2c2ccc(Br)cc2)o1 (centres undefined)	-19%
CC(CN(C(N)=O)c1ccccc1O)C(=O)O (centres undefined)	15%
O=C(c1cccc(F)c1)N1CCC2(CCCN(Cc3ccncc3)C2)CC1	-10%
N#Cc1ccc(C(=O)OCc2cccc(S(=O)(=O)N3CCOCC3)c2)cc1	2%
COc1ccc(-c2nc(S(=O)(=O)c3ccccc3)c(N3CCCCC3)o2)cc1	-29%
O=C(O)C(=Cc1cc2c(cc1[N+](=O)[O-])OCO2)c1cc2c(cc1Br)OCO2	u
Cc1ccc2cc3cc(C(=O)N4CCN(C(=O)c5ccco5)CC4)sc3nc2c1	16%
Cc1ccccc1CSc1ncc(CO)n1Cc1ccc(F)cc1	3%
CC(=O)Nc1ccc(N2CCN(Cc3ccccc3F)CC2)cc1	24%
CC(C)(C)OC(=O)N[C@@H](COCc1ccccc1)C(=O)N[C@@H](CO)[C@H](O)[C@@H]1C[C@@H]1C(=O)NC1CCCCC1	-8%
COCCn1c(SCC(=O)Nc2ccc(Cl)c(S(=O)(=O)N(C)C)c2)nc2ccccc21	9%
COc1ccc2c(c1OC)C(=O)N(c1ccc(O)cc1)C2	-12%
CCCCCOc1ccc(C(=O)NCCC(=O)NCCCC(=O)OCC)cc1	4%
Cc1cn(C)c(CC(=O)Nc2cccc(C#N)c2)c1C(=O)O	-3%
O=C(CCn1c(=S)[nH]c2ccccc2c1=O)NCCSCc1ccccc1	2%
CC(Sc1cccc[n+]1[O-])C(=O)Nc1cc(Cl)c(Cl)cc1Cl (centres undefined)	-6%
CC(=O)c1ccc(S(=O)(=O)N2CCC3(CC2)OCCO3)cc1	-20%
O=C(CN1C(=O)c2ccc([N+](=O)[O-])cc2C1=O)NCCC1=CCCCC1	-2%
More structures follow:
SMILES	VDR inhibitor
O=C(NC(=S)NC12CC3CC(CC(C3)C1)C2)c1ccc(F)cc1	-17%
CCC(=O)c1ccc(OCC(=O)N(CC)CC2COc3ccccc3O2)cc1 (centres undefined)	13%
CCOC(=O)N1CCC(NC(=O)c2oc3c(c2C)-c2[nH]ncc2CC3)CC1	-11%
O=C(c1ccc(Cn2c(=O)[nH]c3ccccc3c2=O)cc1)N1CCN(c2ccc(Cl)cc2)CC1	-11%
CC(=O)Nc1ccc(OC(=O)c2cccnc2)cc1	4%
CC(C)=CC1C(CO)C1(C)C (centres undefined)	5%
COc1ccc(NC(=O)CCCN2C(=O)CN(C)C2=O)c(OC)c1	-1%
COc1ccc(/C=C/c2nnc(NC(C)=O)s2)cc1	9%
NC(=O)C1=C[C@H](C2CCCCC2)C[C@H](OCc2ccc(CO)cc2)O1	-6%
CCn1c(SCc2nc3ccccc3c(=O)[nH]2)nnc1C(C)NC(=O)c1ccccc1 (centres undefined)	-3%
Cn1c(N)c(C(=O)COC(=O)/C=C/c2ccc(Cl)cc2)c(=O)n(C)c1=O	-8%
S=C(Nc1ccc(Cl)c(Cl)c1)N1CCN(c2ccccn2)CC1	-7%
O=c1[nH]c(SCc2c(Cl)cccc2Cl)nc2ccccc12	-1%
Cc1cc(C)n2c(SCC(=O)Nc3ccc(F)cc3F)nnc2n1	u
CCOc1ccc(/C=N/NC(=O)C(O)c2ccccc2)c(O)c1 (centres undefined)	-2%
Fc1ccc(CSc2nnc(-c3ccccn3)o2)cc1	-15%
Cc1cc(C)cc(NC(=O)CSc2oc(-c3cccs3)nc2S(=O)(=O)c2ccccc2)c1	4%
O=c1oc2ccccc2c(Nc2ccc3ccccc3c2)c1[N+](=O)[O-]	3%
Cc1ccc(-n2ncc3c2CCCC3NC(=O)CCC2=NNC(=O)CC2)cc1C (centres undefined)	-1%
COc1cc2c(cc1NC(=O)C(C)Sc1ccc(C)cc1)oc1ccccc12 (centres undefined)	7%
O=C(Cn1ncc2ccccc21)N1CCc2ccccc21	-27%
Cc1cccc(C(=O)NC2CC(C)(C)NC(C)(C)C2)c1	-11%
C/C(=N\NC(=S)Nc1cccc(C)c1)c1cc2ccccc2o1	-28%
O=S(=O)(c1cccc(C(F)(F)F)c1)N1CCN(c2cnccn2)CC1	-5%
Cc1nn(-c2ccccc2)c(C)c1/C=N/NC(=O)c1cc(-c2cccs2)[nH]n1	-1%
CCn1nnnc1SCC(=O)NC1Cc2ccccc2C1	-21%
